Assay outcomes from PubChem BioAssay.
Rce1 inh: yeast Rce1p protease inhibitors, primary screen, biochemical, fluorescence, cell-free homogeneous; yeast membranes, quenched prenylated peptide cleavage fluorescence; calls only; 290,000 compounds, 0.27% hits; AID 2563, 2010;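 active means fall in fluorescence gain of 50% or more versus controls, with final raw signal at or below 3038400; inconclusive means same 50% fall but final raw signal above 3038400; inactive means fall in fluorescence gain under 50%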;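 further: plate controls were neutral control wells for no effect and wells lacking membranes for full effect; tested at 10 µM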
Target sequence (Q03530 whole entry, looked up): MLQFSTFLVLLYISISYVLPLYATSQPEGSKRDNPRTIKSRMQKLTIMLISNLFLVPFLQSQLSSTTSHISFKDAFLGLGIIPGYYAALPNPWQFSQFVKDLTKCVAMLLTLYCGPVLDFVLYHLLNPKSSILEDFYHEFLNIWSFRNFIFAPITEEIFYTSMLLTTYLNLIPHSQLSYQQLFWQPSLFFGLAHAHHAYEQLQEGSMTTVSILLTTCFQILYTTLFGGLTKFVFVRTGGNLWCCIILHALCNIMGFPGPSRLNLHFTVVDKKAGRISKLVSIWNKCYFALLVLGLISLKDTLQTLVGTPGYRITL
MT1-MMP act inh: blockers of MT1-MMP proenzyme processing, primary screen, HT1080 RFP-PRO-GFP cells, GFP/RFP fluorescence. Matrix metalloproteinase-14 (Homo sapiens), P50281. GFP/RFP ratio fluorescence, overnight; percent of plate control window, DMSO zero. GFP/RFP ratio change, % at 20 µM. 360,000 compounds, 0.061% hits;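 active means GFP/RFP ratio change of at least 30% with cell ATP level not reduced by more than half and red fluorescence within 50% of control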; further: strong numbers were not always called active
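Material: RFP-PRO-GFP reporter HT1080 cells. Dosing: single-point 20 µM compound, 1% DMSO. Controls: DMSO and RFP-L50D-GFP cell wells. Timing: cells overnight before dosing, compound overnight, 37 °C, 5% CO2. Measure: GFP/RFP fluorescence ratio.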
CSC inhib: cancer stem cell viability inhibitors, primary screen, luminescence; cancer stem cell-like cells viability; inhibition, % at 7.5 µM; 300,000 compounds, 1.1% hits; AID 2717, 2010;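 active means mean at 75% or more and at least half the replicates too; inconclusive means mean and replicates disagree; tested in HMLE shEcad cells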;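 further: 0% = median of negative and 100% = median of positive control wells; the first replicate is given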
eIF4H inh: human eIF4H binding inhibitors, primary screen, translation initiation inhibitor project, biochemical, uHTS, fluorescence polarization; 290,000 compounds, 0.94% hits; eIF4H fluorescence polarization binding assay; Eukaryotic translation initiation factor 4H (Homo sapiens), Q15056; AID 2012, 2009; inhibition, % at 35 µM;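 active means 50% or more with normal probe brightness, or confirmed in later tests; inconclusive means above 50% with abnormal brightness, or retests that disagree; inactive means below 50% or failed in later tests; about a fifth of its hits are not listed in these tables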;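 further: calls also rest on retests at 20 µM and on dose response follow-up; 0% = protein and probe with vehicle and 100% = probe without protein; strong numbers were not always called active; many hits fall short of the cut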
UUG fidelity: modulators of yeast start codon fidelity, primary screen, whole organism, S. cerevisiae, single point, plate reader | S. cerevisiae UUG-firefly luciferase reporter, luminescence/redox ratio | activity score, % at 18.7 µM | 350,000 compounds, 0.13% hits;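 active means replicate mean at a twofold rise or more, about +100% in these data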;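 further: firefly luciferase made from a UUG start codon reports start codon fidelity; reporter light over untreated wells divided by growth signal over untreated wells; some hits fall short of that in this replicate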
PABP FP inh: PABP poly(A) RNA binding inhibitors, primary screen, biochemical, fluorescence polarization, uHTS | 290,000 compounds, 1% hits | inhibition, % at 35 µM;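 active means 50% or more with normal probe brightness, or confirmed in later tests; inconclusive means above 50% with abnormal brightness, or retests that disagree; inactive means below 50% or failed in later tests; about a fifth of its hits are not listed in these tables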;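 further: calls also rest on retests at 20 µM and on dose response follow-up; controls were probe without protein and protein plus probe with vehicle; some compounds called inactive have numbers as strong as hits; many hits fall short of the cut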
Target sequence (P11940 whole entry, looked up): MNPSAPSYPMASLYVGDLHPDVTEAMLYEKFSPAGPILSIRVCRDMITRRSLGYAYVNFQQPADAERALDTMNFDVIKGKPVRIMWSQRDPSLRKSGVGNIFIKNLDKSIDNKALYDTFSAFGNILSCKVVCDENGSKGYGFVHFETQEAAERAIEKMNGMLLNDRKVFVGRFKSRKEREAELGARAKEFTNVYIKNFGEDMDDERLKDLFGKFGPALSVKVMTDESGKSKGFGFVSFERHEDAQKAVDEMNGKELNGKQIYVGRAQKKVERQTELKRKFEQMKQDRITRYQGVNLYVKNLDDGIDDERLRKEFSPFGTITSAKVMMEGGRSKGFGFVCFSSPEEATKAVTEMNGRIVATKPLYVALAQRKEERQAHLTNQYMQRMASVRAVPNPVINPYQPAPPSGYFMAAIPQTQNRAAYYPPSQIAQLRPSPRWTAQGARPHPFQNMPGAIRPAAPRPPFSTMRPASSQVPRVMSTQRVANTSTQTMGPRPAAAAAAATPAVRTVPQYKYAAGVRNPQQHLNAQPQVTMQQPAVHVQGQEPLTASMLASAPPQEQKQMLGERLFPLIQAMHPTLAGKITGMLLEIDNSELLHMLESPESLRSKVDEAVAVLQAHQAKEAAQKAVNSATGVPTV
Env fusion inh: inhibitors of HIV-1 Env-driven cell-cell fusion, primary screen, HeLa-JRFL effector, CEM21 target cells, luciferase. inhibition, % at 12.3 µM. 360,000 compounds, 1.1% hits;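 active means mean replicate inhibition score of at least 50 and every replicate individually at or above 50; inconclusive means only one of the two criteria met; inactive means mean below 50 and not all replicates reaching 50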;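 further: 0% = plate neutral controls and 100% = maraviroc near 300 nM; one replicate is shown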
eIF4H inh retest: also measured in eIF4H inh; calls as there; inhibition, %; compound at 20 µM; confirmation average;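 mean of two retest wells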
PABP FP inh retest: further read-out of PABP FP inh, marked with its call; inhibition, %; compound at 20 µM; confirmation repeats;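 mean of two retest wells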
MT1-MMP act inh RFP: also measured in MT1-MMP act inh; calls as there; RFP signal change, %; measured here: RFP expression control read;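 0 = vehicle wells; hits needed this value within 50% of zero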
An asterisk follows results filed as active; i = inactive; u = inconclusive; x = not tested or not shown; & = joins results of further samples; [ ] = another dose, or the depositor's remark. This is a random part of the collection. About 3% of those tested had a hit in this group.

SMILES	Rce1 inh	MT1-MMP act inh	MT1-MMP act inh RFP	CSC inhib	eIF4H inh	UUG fidelity	PABP FP inh	Env fusion inh	others
Cn1nc(C(F)(F)F)c(/C=N/OC(=O)c2ccccc2)c1SCc1ccccc1Cl	i	-1	-16	58	-4	x	-6	u
COc1cc(Cl)ccc1OCc1cc(C(=O)NC(C)Cc2cccnc2)no1 (stereo unspecified)	i	3	-1	-2	5	-19	-8	-14
COc1ccccc1C=NNC(=O)c1ccncc1	x	0	2	x	x	7	x	-18
O=C(Nc1ccc2c(c1)OCO2)C(c1ccc(Cl)cc1)N1CCC2(CC1)OCCO2 (stereo unspecified)	i	0	0	0	-8	1	4	-14
C/C(CC(=O)NCc1ccc(Cl)cc1)=N\NC(=O)Cc1ccccc1	i	5	8	-18	8	x	11	x
Cn1c(SCC(=O)N(Cc2ccccc2)C(C)(C)C)nc2ccccc21	i	-9	-6	-17	4	-17	-5	x
CC1=CC(C)(C)NC(=O)N1c1ccc(C)cc1	i	2	1	-5	-1	x	-5	-3
COc1ccc(N2CCN(C(=O)CSc3ccccc3N)CC2)cc1	i	-4	2	7	1	-10	-2	x
CC1(Cc2ccc(F)cc2)C(=O)Nc2c(Cl)ccc(Cl)c21 (stereo unspecified)	x	0	-6	x	x	-9	x	22
O=C(Nc1ccc(C(=O)O)cc1)/C(=C/c1cccc(Br)c1)NC(=O)c1ccco1	i	1	1	x	-8	-16	7	6
CCn1c2c(c(C)cc1=O)C(=O)CC(C)(C)C2	i	-4	-1	x	1	x	-2	-8
CCc1ccccc1OCC(=O)NCC1COc2ccccc2O1 (stereo unspecified)	x	6	-1	-8	x	-8	x	0
Cc1ccc(C(c2c(C)[nH][nH]c2=O)c2c(C)[nH][nH]c2=O)cc1	i	-2	0	-9	1	-35	1	13
COc1cc(CNn2cnnc2)ccc1OCC(=O)NC1CCCCC1	i	2	1	-10	-1	-17	-2	9
Cc1ccc(N2C(=O)[C@@H]3C(c4ccc(F)cc4)=NO[C@@H]3C2=O)cc1	i	0	2	1	-9	-4	8	x
COc1ccc(-c2cc(C(=O)Nc3ccc(O)cc3)c3ccccc3n2)cc1OC	i	-12	-3	12	-10	-14	1	-13
CCCN1Cc2cccc(C(=O)NCCCOC(C)C)c2C1=O	i	-3	1	-1	-2	-2	3	x
O=C(Nc1ccc(F)cc1)Nc1nnc([C@@H]2C[C@H](O)[C@@H](CO)O2)s1	x	1	2	x	x	-4	x	-4
COc1ccc(C2CC(=O)c3cc(OC)ccc3O2)cc1 (stereo unspecified)	x	-2	-2	x	x	-13	x	-49
COc1ccc(CN(C)C(=O)Cc2ccc(S(=O)(=O)N3CCOCC3)s2)cc1OC	x	-5	-3	-11	x	-17	x	x
COC(=O)c1ccccc1NC(=O)CCS(=O)(=O)c1ccc(Br)s1	i	0	3	2	-5	-1	-6	-39
CCOC(=O)c1sc(NC(=O)C2CC(=O)N(c3ccc4c(c3)OCCO4)C2)nc1C (stereo unspecified)	x	-9	-4	x	x	15	x	-3
COC(=O)/C=C1/S/C(=N/NC(=O)c2ccccc2)NC1=O	i	3	1	-7	0	-28	6	x
COc1ccc(C)cc1NC(=O)/C=C/c1ccc(OC)c(S(=O)(=O)N2CCOCC2)c1	x	6	-1	x	x	-2	x	8
O=C1CC(c2ccc3c(c2)OCO3)CN1 (stereo unspecified)	i	1	0	6	-8	1	-3	x
COc1ccc(Br)cc1S(=O)(=O)Nc1ncn[nH]1	i	2	1	-3	-10	-11	-1	x
COc1ccc(-c2ccc(SCC(=O)N3CCCC3)nn2)cc1OC	i	10	5	-1	7	-4	0	-27
COC(=O)c1ccc2c(=O)n(CCN3CCOCC3)c(=S)[nH]c2c1	i	3	1	6	11	-5	10	-24
CC(C)(C)OC(=O)NCCCCCc1nnc(SCc2ccccc2F)o1	i	3	-8	-3	-5	x	-4	30
OC[C@@H]1CN(C2CCCC2)C[C@H](n2cnc3c(N4CCCC4)ncnc32)O1	x	0	4	x	x	-7	x	-8
CCc1cc2c(=O)[nH]c(Cc3ccc(OC)cc3)nc2s1	i	-3	-10	1	-8	5	-8	4
COc1ccccc1OCC(=O)N/N=C/C=C/c1ccc([N+](=O)[O-])o1	i	-11	-2	6	u	18	14	-8
CC(Oc1ccccc1C(N)=O)C(=O)Nc1ccc(S(=O)(=O)N2CCCC2)cc1 (stereo unspecified)	i	0	-1	-6	x	15	x	-30
COC(=O)c1cc(C)sc1NC(=O)CN1CCN(C(=O)C2CCCO2)CC1 (stereo unspecified)	i	0	2	0	9	7	5	-26
Cc1ccc(S(=O)(=O)N2CCC[C@H]2C(=O)OCc2cc(=O)oc3cc(C)ccc23)cc1	x	-7	5	x	x	-6	x	0
CC[C@]12C(=O)N(C)C[C@H]([C@@H]3C(=O)N(C)C(=O)[C@@H]31)N2C(=O)c1ccc(C)cc1	x	-4	1	x	x	-2	x	6
COc1cc(/C=N/NC(=O)c2ccc(O)cc2)ccc1OCC(=O)N1CC(C)OC(C)C1 (stereo unspecified)	i	-2	0	14	-9	5	-6	5
CCc1ccc(NC(=O)Cn2cnc3sc(C)c(S(=O)(=O)N4CCOCC4)c3c2=O)cc1	i	0	1	-20	9	-5	7	-3
CN(c1ccccc1)S(=O)(=O)c1cccc(C(=O)OCC(=O)NCCCN2CCCC2=O)c1	i	1	4	-7	10	-10	64*	17	eIF4H inh retest=19;PABP FP inh retest=57*
O=C(CCC(=O)N(CC(=O)NC1CCCC1)Cc1ccc2c(c1)OCO2)Nc1nccs1	i	x	x	-11	-8	x	4	5

Fetched one by one from above:
SMILES	Rce1 inh	MT1-MMP act inh	MT1-MMP act inh RFP	CSC inhib	eIF4H inh	UUG fidelity	PABP FP inh	Env fusion inh	others
COC(=O)c1cc(C)sc1NC(=O)CN1CCN(C(=O)C2CCCO2)CC1 (stereo unspecified)	i	0	2	0	9	7	5	-26
COC(=O)/C=C1/S/C(=N/NC(=O)c2ccccc2)NC1=O	i	3	1	-7	0	-28	6	x

Next results follow:
SMILES	Rce1 inh	MT1-MMP act inh	MT1-MMP act inh RFP	CSC inhib	eIF4H inh	UUG fidelity	PABP FP inh	Env fusion inh	others
CC(=O)Nc1ccc(Nc2nc(-c3c(C)nc4ccccn34)cs2)cc1	i	11	-11	59	x	-23	x	-198
CN1CCN(C(=O)C2=C[C@H](c3csc4ccccc34)C[C@H](OCc3ccc(CO)cc3)O2)CC1	i	-2	-2	-7	-1	-4&3	1	12[16.7 µM]
CCC(C)NC(=O)c1ccc(COc2ccccc2Cl)cc1 (stereo unspecified)	i	2	-4	20	-7	-23	-2	12
Cc1ccc2cc(C)c3nnc(SCC(=O)N4CCN(C(=O)c5ccco5)CC4)n3c2c1	i	8	0	-4	-2	-8	5	x
c1ccc2sc(SCc3ccc(-c4nnco4)cc3)nc2c1	i	2	-13	-3	-6	-17	-4	37
CC1CCCCN1CC(=O)c1c(N)n(Cc2ccccc2)c(=O)n(C)c1=O (stereo unspecified)	i	-5	6	8	9	-10	3	-18
O=C(O)CCC(=O)Nc1ccc2c(c1)Cc1cc(NC(=O)CCC(=O)O)ccc1-2	i	3	0	1	59*	0	12	9	eIF4H inh retest=53*;PABP FP inh retest=36
COc1ccc(N2C(=O)CSC23C(=O)Nc2ccccc23)cc1 (stereo unspecified)	i	-4	-4	-11	-1	-4	-7	-45
O=C(Cn1nnc2c(cnn2-c2ccccc2)c1=O)N1CCN(c2ccccc2F)CC1	i	-1	2	24	-1	-4	-6	-8
COc1ccc(/C=N/Nc2snc(SC)c2C#N)cc1OC	i	-6	-15	45	11	-15	-10	x
Cc1ccccc1CSc1n[nH]c(NS(=O)(=O)c2ccccc2)n1	i	-9	1	4	-13	-8	-3	-120
CCCCNC(=O)CC1N=C2c3ccccc3N=C(SCC(=O)Nc3ccc(OC)cc3)N2C1=O (stereo unspecified)	i	-6	-3	-2	-4	11	-7	-75
O=C(NCc1ccccc1)c1ccc2c(=O)[nH]c3c(C(=O)NCC4CCCO4)sc(=S)n3c2c1 (stereo unspecified)	i	3	4	15	-8	-9	9	-5
CC1CCC2(CC1)NC(=O)N(CC(=O)NCc1ccco1)C2=O (stereo unspecified)	x	5	5	x	x	-2	x	21
CCOC(=O)/C(C#N)=C/NC(=O)NC(C)(C)C	i	-1	-7	0	-1	-14	4	x
COC(=O)CN1C(=O)[C@H]2[C@@H](c3ccc(C)o3)N3C(=O)CN(Cc4ccc(-c5ccccc5)cc4)C(=O)[C@@]3(C)[C@H]2C1=O	i	-1	2	-22	-12	22	-2	3
COc1ccc(-c2cc(C(=O)OCC(=O)NC(C)C)c3ccccc3n2)cc1	i	7	1	-1	3	x	-16	1
CCCN(CCC)S(=O)(=O)c1cc(CN2C(=O)c3cccnc3C2=O)ccc1OC	i	-2	1	-11	0	-13	1	-17
COc1ccc(/C=C/C(=O)OCC(=O)NC2CCS(=O)(=O)C2)cc1 (stereo unspecified)	x	-1	5	x	x	-6	x	-5
Cc1cc(C)cc(NC(=O)COC(=O)c2ccc(CN3CCCC3=O)cc2)c1	x	-1	1	-3	x	-3	x	x
CCNS(=O)(=O)c1ccc(NC(=O)Cn2nc(C(F)(F)F)cc2C)cc1	i	0	3	-3	-8	x	2	x
CC(C)C(=O)N1CCN(S(=O)(=O)c2ccc3ccccc3c2)CC1	x	2	-10	-7	-4	34	5	0
COCCn1c(SCc2c(F)cccc2Cl)nc2c1c(=O)[nH]c(=O)n2C	i	-3	-1	-13	-14	-12	-1	-7
CN1CCN(S(=O)(=O)c2ccc(NC(=O)c3cccs3)cc2)CC1	i	5	3	-7	0	-5	-9	x

Gathered by group, those above with fluorine
SMILES	Rce1 inh	MT1-MMP act inh	MT1-MMP act inh RFP	CSC inhib	eIF4H inh	UUG fidelity	PABP FP inh	Env fusion inh	others
Cn1nc(C(F)(F)F)c(/C=N/OC(=O)c2ccccc2)c1SCc1ccccc1Cl	i	-1	-16	58	-4	x	-6	u
CC1(Cc2ccc(F)cc2)C(=O)Nc2c(Cl)ccc(Cl)c21 (stereo unspecified)	x	0	-6	x	x	-9	x	22
Cc1ccc(N2C(=O)[C@@H]3C(c4ccc(F)cc4)=NO[C@@H]3C2=O)cc1	i	0	2	1	-9	-4	8	x
O=C(Nc1ccc(F)cc1)Nc1nnc([C@@H]2C[C@H](O)[C@@H](CO)O2)s1	x	1	2	x	x	-4	x	-4
CC(C)(C)OC(=O)NCCCCCc1nnc(SCc2ccccc2F)o1	i	3	-8	-3	-5	x	-4	30
O=C(Cn1nnc2c(cnn2-c2ccccc2)c1=O)N1CCN(c2ccccc2F)CC1	i	-1	2	24	-1	-4	-6	-8
CCNS(=O)(=O)c1ccc(NC(=O)Cn2nc(C(F)(F)F)cc2C)cc1	i	0	3	-3	-8	x	2	x
COCCn1c(SCc2c(F)cccc2Cl)nc2c1c(=O)[nH]c(=O)n2C	i	-3	-1	-13	-14	-12	-1	-7
